Compound activity deposited in PubChem BioAssay by ICCB-Longwood Screening Facility, Harvard Medical School.
Polio RdRp inh = inhibitors of poliovirus RNA polymerase binding and polymerization | actives 0.66% (n = 150,000) | poliovirus polymerase elongation, fluorescence polarization; hits give low values | % elongation, % (compound at 16.7 µg/mL) | AID 588519; in the data active = % elongation below about 90%; also: some results filed as inactive read as strong as hits
Target sequence (P03300 1749-2209 limits assumed): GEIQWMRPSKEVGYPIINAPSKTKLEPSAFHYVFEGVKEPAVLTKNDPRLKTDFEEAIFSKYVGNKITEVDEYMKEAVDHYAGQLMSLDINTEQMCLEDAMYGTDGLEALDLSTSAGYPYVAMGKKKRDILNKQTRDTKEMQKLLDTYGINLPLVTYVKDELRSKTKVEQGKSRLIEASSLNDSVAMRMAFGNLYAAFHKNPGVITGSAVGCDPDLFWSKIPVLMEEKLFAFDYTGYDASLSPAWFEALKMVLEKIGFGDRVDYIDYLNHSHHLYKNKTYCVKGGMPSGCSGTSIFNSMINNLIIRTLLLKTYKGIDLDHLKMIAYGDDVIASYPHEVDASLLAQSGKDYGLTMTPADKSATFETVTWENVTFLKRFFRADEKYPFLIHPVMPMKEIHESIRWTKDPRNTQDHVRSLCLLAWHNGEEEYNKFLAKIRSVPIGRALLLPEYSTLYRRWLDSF
MbtI inh = blocks the Mycobacterium tuberculosis siderophore enzyme MbtI; P9WFX0; purified MbtI enzyme, fluorescence intensity read-out; inhibition, %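 (about 17 µg/mL by stock and volumes)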; actives 0.89% (n = 100,000); AID 493033;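 active = above 50% in both replicates, above 80% if mildly self-fluorescent; inactive = the rest, strongly fluorescent compounds included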;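 also: 0% = mean of negative and 100% = mean of positive controls; one replicate is shown; some compounds called inactive have numbers as strong as hits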
Target sequence (P9WFX0 whole entry, looked up): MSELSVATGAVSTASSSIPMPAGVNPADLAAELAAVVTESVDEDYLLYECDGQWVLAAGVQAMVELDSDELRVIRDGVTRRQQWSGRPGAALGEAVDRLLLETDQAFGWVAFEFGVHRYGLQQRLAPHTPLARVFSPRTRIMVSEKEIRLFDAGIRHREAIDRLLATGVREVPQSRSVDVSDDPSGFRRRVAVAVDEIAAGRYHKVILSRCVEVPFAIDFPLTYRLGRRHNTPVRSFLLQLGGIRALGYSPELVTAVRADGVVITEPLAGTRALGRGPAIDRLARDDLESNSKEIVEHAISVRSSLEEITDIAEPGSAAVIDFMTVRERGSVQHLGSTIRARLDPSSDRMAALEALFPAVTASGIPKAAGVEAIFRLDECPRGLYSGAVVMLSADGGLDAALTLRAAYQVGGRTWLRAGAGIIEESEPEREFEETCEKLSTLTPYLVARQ
Mtb MenB inh = blocks the Mycobacterium tuberculosis MenB enzyme. AID 540299. actives 0.43% (n = 100,000). inhibition, %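 (about 12 µg/mL by stock and volumes)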. MenB enzyme assay, absorbance read-out; some hits fall short of the stated cut. P9WNP5;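 active = mean of two replicates above 30%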;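 also: 0% = no compound and 100% = wells with inactive enzyme; the first replicate is given; strong numbers were not always called active; inactives centre near -10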
Polio RdRp inh intensity = recorded beside Polio RdRp inh, whose call it bears; % elongation; measured here: total intensity read-out; formula for this scale not given here;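 total fluorescence in place of polarization; lower means less elongation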
* = called active by the depositor; i = inactive; x = not tested or not shown; & = joins results of further samples.

SMILES	Polio RdRp inh	Polio RdRp inh intensity	MbtI inh	Mtb MenB inh
COc1ccccc1NC(=O)Cn1c(=O)n(Cc2ccccn2)c(=O)c2sc3ccccc3c21	101.0	100.0	-11.9	-18.8
O=C(Cc1cn2ccsc2n1)N/N=C/c1ccc2ncccc2c1	98.0	98.0	7.8	-22.4
O=C(CCn1c(=O)c2cccn2c2cccnc21)N1CCN(c2ccccn2)CC1	102.0	101.0	78.7	-2.8
O=S(=O)(c1ccccc1)c1ccccc1/C=N\O	104.0	102.0	-2.8	23.3
Cc1cc(C(=O)Nc2ccc(N3CCOCC3)cc2)c(C)s1	101.0	107.0	7.8	3.4
C/C(=N\N)c1c(-c2ccccc2)[nH][nH]c1=O	101.0	93.0	-11.8	-19.4
CCN(CC)CCCNc1ccc(-c2nnc(-c3ccc(OCC(C)C)cc3)o2)cn1	104.0	102.0	104.1	-16.4
CCN=C1Sc2nc3ccc(OCC)cc3cc2CN1CCOC	102.0	103.0	22.5	23.0
CC(NC(=O)CSc1n[nH]c(N)n1)c1ccccc1 (configuration not stated)	106.0	101.0	20.2	4.5
O=C1CC2C(=O)NCCN2C(=NC(=O)c2ccccc2)N1 (configuration not stated)	108.0	109.0	x	-2.8
O=C(NCCN1CCOCC1)NC(c1ccccc1)c1ccccc1	x	x	12.2	9.5
COc1ccc2oc(=O)c(C(=O)N3c4ccccc4CC3C)cc2c1 (configuration not stated)	101.0	104.0	8.2	0.9
CC(NC(=O)Cn1[nH]c(=O)c2ccccc2c1=O)c1ccc(S(N)(=O)=O)cc1 (configuration not stated)	105.0	107.0	-2.0	-25.7
COc1ccc(C(CC(=O)c2ccccc2)Sc2ccccc2N)cc1 (configuration not stated)	100.0	104.0	2.5	-39.0
COc1ccc(CN2CCN(c3ncnc4onc(-c5ccc(F)cc5)c34)CC2)c(OC)c1OC	103.0	102.0	-4.8	-20.9
NNC(=O)CSC(=S)N1CCCC1	104.0	93.0	19.8	-63.9
N#Cc1ccccc1S(=O)(=O)N1CCN(S(=O)(=O)c2ccccc2C#N)CC1	99.0	101.0	6.2	-9.6
CO[C@H]1/C=C/O[C@@]2(C)Oc3c(C)c(O)c4c(O)c(c(C=NN5CCN(C)CC5)c(O)c4c3C2=O)NC(=O)/C(C)=C\C=C\C(C)[C@H](O)[C@@H](C)[C@@H](O)[C@@H](C)[C@@H](OC(C)=O)[C@@H]1C (some centres not stated)	102.0	96.0	-8.2	-17.0
S=c1[nH]c(-c2ccccc2)cn1/N=C/c1ccc2c(c1)OCCO2	106.0	109.0	6.7	-66.9
Nc1ccc2c(c1)nc1n2CCCCC1	104.0	105.0	104.5	-28.1
CC(C)CNC(=O)CSc1ccc(Cl)cc1	100.0	98.0	-8.2	-33.3
COc1ccc(CCN2CN=C(NC#N)NC2)cc1OC	102.0	104.0	-15.2	-27.9
CN1CCN(CC(=O)NCCc2ccc(F)cc2)CC1	103.0	101.0	-5.5	12.5
O=C1NC2(c3ccccc3)NC(=O)NC2(c2ccccc2)N1 (configuration not stated)	95.0	90.0	-4.9	-102.2
CN1C(=O)C2C(c3ccccc3)NN(C)C2C1=O (configuration not stated)	x	x	-2.6	10.3
CCCC1(C(=O)OC)NC(c2cc(OC)c(OC)c(OC)c2)C2C(=O)N(c3ccc(C)cc3)C(=O)C21 (configuration not stated)	101.0	100.0	-12.8	12.5
CCCCn1c(=O)c(CCC(=O)OCC(=O)c2ccc3c(c2)OCCO3)nc2ccccc21	102.0	108.0	-3.7	-46.0
CCn1c(C)c(C2N3CC4(C(C)C)CN2CC(C(C)C)(C3)C4=O)c2ccccc21 (configuration not stated)	104.0	101.0	-12.1	-2.2
COc1ccc2c(c1)c(C(=O)CSc1nnc3c(n1)CCCC3)c(C)n2C	102.0	101.0	2.9	-43.9
C[C@@H]1CC2C3CCC4=CC(=O)C=CC4(C)[C@@]3(F)[C@@H](O)CC2(C)[C@@]1(O)C(=O)CO (some centres not stated)	99.0	106.0	x	7.7
CC(C)Sc1nnc(NC(=O)C(C)(C)C)s1	100.0	103.0	-0.3	-2.1
COc1ccc(-c2cc(C)no2)cc1S(=O)(=O)Nc1ccc(C)c(N(C)C)c1	100.0	101.0	17.4	1.3
Fc1ccc(Nc2nc(Nc3ccc(F)cc3)nc(N3CCCCC3)n2)cc1	102.0	100.0	-78.1	-6.0
CN(C)/C=N/S(=O)(=O)c1ccc(-n2nc(C(F)(F)F)cc2-c2cccs2)cc1	106.0	106.0	-2.3	-6.8
CC(C)NS(=O)(=O)Cc1ccccc1	106.0	102.0	x	-3.3
O=C(c1c2c(nc3ccccc13)CCCC2)N1CCCCC1	102.0	96.0	2.4	-4.5
CC(C)(C)NC(=O)CN1CCN(C(=O)CSc2nnc3c(n2)Nc2ccccc2S3)CC1	95.0	104.0	11.4	-56.0
CC(=O)NCc1ccc(C(=O)COC(=O)c2ccc(S(=O)(=O)N3CC(C)CC(C)C3)cc2)o1 (configuration not stated)	95.0	101.0	-3.6	-51.8
Nc1nc(CN2CCCC2c2ccc3c(c2)OCCCO3)nc(Nc2ccccc2)n1 (configuration not stated)	107.0	99.0	4.3	-9.3
COC(=O)/C=C1\NC2CCCCC2NC1=O (configuration not stated)	103.0	106.0	9.4	6.9
COC(=O)/C=C1\SC(=NC(=O)c2cccc(Cl)c2)NC1=O	100.0	101.0	16.6	-32.4
Cc1c(C#N)c(O)n(CCO)c(=O)c1N=Nc1cccc(C(=O)O)c1	107.0	103.0	-0.8	-163.7
CCCCC(=O)O[C@H]1CCC2C3CCc4cc(O)ccc4C3CC[C@@]21C (some centres not stated)	101.0	102.0	-13.1	-8.6
CN(C(=O)CCc1ccccc1)c1nnc(-c2ccncc2)s1	101.0	112.0	-6.4	-26.0
CC[N+](C)(CC)C/C=C1/COCO1	107.0	101.0	x	-19.9
COc1ccc(CCNC(=O)c2ccnc(C(C)(C)C)c2)cc1OC	100.0	100.0	0.0	-21.6
CCOc1ccc2nc(SCC(=O)c3ccc(C)s3)sc2c1	102.0	103.0	-11.3	-10.2
O=C1NN(c2ccccc2)C(=O)/C1=C/c1coc2ccccc2c1=O	103.0	106.0	9.2	13.3
O=C1CCCCCN1C(=O)c1ccccc1	102.0	107.0	7.3	-15.7
CN(C1CCCCC1)S(=O)(=O)c1ccccc1NC(=O)Cn1cnc2ccccc21	101.0	106.0	-3.4	-33.4
Cc1cc(C)nc(N2CCC(C(N)=O)CC2)n1	103.0	101.0	133.3	-25.4
COc1cccc(NC(=O)COc2ccc(N3CC(C(=O)NCC(C)C)CC3=O)cc2)c1 (configuration not stated)	101.0	99.0	4.8	-10.6
CSc1ncc(C(=O)N(C)Cc2ccc3c(c2)OCO3)n1-c1ccccc1	105.0	113.0	-6.2	-16.6
CCOC(=O)c1oc2ccccc2c1COC(=O)CNS(=O)(=O)c1ccc2c(c1)OCCCO2	106.0	102.0	8.8	-29.5
Cc1c(C(=O)N/N=C/c2ccccc2)sc(=S)n1C	99.0	101.0	0.1	-34.9
CC(NC(=O)Nc1ccccc1)C(=O)O (configuration not stated)	97.0	100.0	18.6	10.1
Cc1nc(-n2cccc2)sc1C(=O)N/N=C/c1ccccc1Cl	100.0	102.0	11.2	-1.2
CSCCC1C(=O)N(N)C2(C)CC(C)(C)NC(=S)N12 (configuration not stated)	101.0	97.0	-2.9	-26.6
Cn1c(=O)n(C)c2cc(N3CCOCC3)c(N)cc21	100.0	103.0	27.6	10.6
O=C(O)C1Cc2c([nH]c3ccccc23)C2(CCCCC2)N1 (configuration not stated)	105.0	104.0	3.5	-33.2

For reference, some entries already given.
SMILES	Polio RdRp inh	Polio RdRp inh intensity	MbtI inh	Mtb MenB inh
O=C(c1c2c(nc3ccccc13)CCCC2)N1CCCCC1	102.0	96.0	2.4	-4.5
CC(C)(C)NC(=O)CN1CCN(C(=O)CSc2nnc3c(n2)Nc2ccccc2S3)CC1	95.0	104.0	11.4	-56.0

(further entries)
SMILES	Polio RdRp inh	Polio RdRp inh intensity	MbtI inh	Mtb MenB inh
CCOC(=O)c1cccc(NC(=O)NCc2noc3ccccc23)c1	103.0	98.0	4.5	-33.3
O=C(NCc1ccco1)C1(c2ccccc2)CCCC1	103.0	103.0	-3.1	-4.9
CN1C(=O)/C(=C/c2cccn2C(C)(C)C)C(=O)NC1=S	105.0	102.0	67.2	-65.0
CCS(=O)(=O)Cc1cccs1	104.0	103.0	-20.4	-4.9
O=C1CN(c2ccccc2)CC(=O)N1	100.0	101.0	-11.2	-11.8
CC1=C/C(=N/NC(=O)C2CC2)CC1	99.0	108.0	-11.1	-11.7
COc1ccc(C(=O)NCC(=O)OCc2nc3ccccc3c(=O)n2CC#N)cc1OC	x	x	-1.1	-27.8
Cc1cc(C)nc(/N=C(/N)N2CCCCC2)n1	103.0	105.0	2.2	-7.3
CSC1=NC=C(C#N)C2=NC(c3c(F)cccc3Cl)NN12 (configuration not stated)	102.0	101.0	12.3	12.5
Cc1cc2nn(-c3ccccc3)nc2cc1NC(=O)C(C)C	101.0	103.0	14.4	-9.7
Cc1ccc(NC(=O)Nc2ccc(C(N)=O)cc2)cc1	100.0	104.0	-13.6	-20.6
Cc1c(N2C(=O)c3ccccc3C2(O)c2ccccc2)c(=O)n(-c2ccccc2)n1C (configuration not stated)	103.0	101.0	-8.2	-8.6
CCOC(=O)c1c(SC)nc2ccc(Cl)cc2c1N1CCN(C)CC1	101.0	105.0	-5.7	2.4
O=C(O)CCSC1CC(=O)N(c2ccc(F)cc2)C1=O (configuration not stated)	100.0	105.0	-2.7	3.9
CC(=O)N[C@@H](CSC/C=C(\C)CCC=C(C)C)C(=O)O	100.0&100.0	101.0&99.0	-8.7	-10.8
CN(CC(=O)N1CCc2ccccc21)S(=O)(=O)c1ccc2c(c1)CCCC(=O)N2	100.0	102.0	2.2	-8.4
Cc1ccccc1Nc1ccc2noc3c2c1C(=O)c1ccccc1-3	103.0	109.0	-14.8	-45.6
COc1ccc(C(=O)Nc2nn3c(CC(C)C)nnc3s2)cc1	103.0	105.0	1.8	-23.8
Fc1ccc(-n2c(C34CC5CC(CC(C5)C3)C4)n[nH]c2=S)cc1	102.0	104.0	2.4	-33.7
Nc1nc(-c2ccccc2)c(NC(=O)c2ccccc2Cl)s1	101.0	104.0	7.2	x
Cc1ccc(OCCn2ncc3ccccc3c2=O)c(C)c1	102.0	99.0	-9.4	-8.9
Cc1cccn2c(=O)c(C=Nc3ccccc3)c(NCCO)nc12	106.0	108.0	-80.7	-18.2
COc1ccc(/C=C/C(=O)N[C@@H](C)C(=O)O)cc1	97.0	101.0	-1.8	-0.5
CCCc1c(O)nc(SCC(=O)N2CCCCC2)[nH]c1=O	101.0	104.0	-2.5	8.1

Filtered by structure, the entries above with a COOH group.
SMILES	Polio RdRp inh	Polio RdRp inh intensity	MbtI inh	Mtb MenB inh
Cc1c(C#N)c(O)n(CCO)c(=O)c1N=Nc1cccc(C(=O)O)c1	107.0	103.0	-0.8	-163.7
CC(NC(=O)Nc1ccccc1)C(=O)O (configuration not stated)	97.0	100.0	18.6	10.1
O=C(O)C1Cc2c([nH]c3ccccc23)C2(CCCCC2)N1 (configuration not stated)	105.0	104.0	3.5	-33.2
O=C(O)CCSC1CC(=O)N(c2ccc(F)cc2)C1=O (configuration not stated)	100.0	105.0	-2.7	3.9
CC(=O)N[C@@H](CSC/C=C(\C)CCC=C(C)C)C(=O)O	100.0&100.0	101.0&99.0	-8.7	-10.8
COc1ccc(/C=C/C(=O)N[C@@H](C)C(=O)O)cc1	97.0	101.0	-1.8	-0.5

The listing continues:
SMILES	Polio RdRp inh	Polio RdRp inh intensity	MbtI inh	Mtb MenB inh
CCc1cccc(CC)c1NC(=O)Cn1nc(C(F)(F)F)nc1N	106.0	107.0	-3.9	-5.7
C[C@H](NC(N)=O)C(=O)Nc1ccccc1	103.0	107.0	-10.9	2.6
CCOc1ccc2nc(NCCCNC(=O)C3CCCO3)c(C#N)cc2c1 (configuration not stated)	92.0	111.0	6.9	6.5
O=C(OCc1nc(-c2ccccc2)oc1COC(=O)c1ccco1)c1ccco1	100.0	102.0	4.4	-79.5
O=c1[nH]n(-c2ccccc2Cl)c(=O)c2ccccc12	103.0	104.0	0.2	-6.7
CN(Cc1coc(-c2ccccc2)n1)Cc1coc(-c2ccccc2)n1	100.0	104.0	-3.8	-22.7
N#Cc1nc2c(-c3nc4ccccc4s3)c(N)n(-c3ccc(Cl)cc3)c2nc1C#N	110.0	138.0	x	-2.9
CCN1C(=O)/C(=C\C(C)=C\c2ccccc2)SC1=S	102.0	105.0	-9.1	-8.0
C=CCn1c(SC(CCO)C(=O)NCc2ccco2)nc2sc3c(c2c1=O)CCC3 (configuration not stated)	102.0	99.0	-0.2	1.7
COc1cc2c(cc1OC)C(C)N(c1ncnc3c1cnn3C)CC2 (configuration not stated)	101.0	102.0	-11.3	-1.8
Cn1nc(C(C)(C)C)c(NC(=O)c2ccc(F)cc2)c1C(C)(C)C	103.0	101.0	-7.7	-12.0
CC(C)NC[C@H](O)COc1cccc2ccccc12	100.0&100.0&101.0	102.0&99.0&100.0	65.8&-4.2	-0.8&-6.8
O=C(NC1CCS(=O)(=O)C1)c1c(Cl)cccc1Cl (configuration not stated)	106.0	107.0	-5.1	-15.2
C=CCn1c(/N=C/c2ccc(Cl)cc2)nc2ccccc21	103.0	102.0	5.2	-27.5
CCCCCc1c(O)c2ccccc2[nH]c1=O	101.0	101.0	i	-3.2
CC1SCCN1S(=O)(=O)c1ccc(Br)cc1 (configuration not stated)	101.0	103.0	11.9	-2.8
